# From PubChem BioAssay
# Mtb bLac sens: beta-lactam sensitization of Mtb H37Rv, H37Rv | actives 0.27% (n = 330,000) | M. tuberculosis H37Rv growth with meropenem, percent inhibition; hits of this screen are not shown here | inhibition, % at 25 µM;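 active means about 74% or more and at least 40 points above the plate without the antibiotic, then above 30% in a dose series; inconclusive means first-round hits that could not be retested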;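 further: growth measured after seven days incubation then overnight dye step; 0% = bacteria only wells and 100% = bacteria with antibiotic; twin plates without the antibiotic show which effects depend on it; some results filed as inactive read as strong as hits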
# RecA splice inh: Mtb RecA intein splicing inhibitors, primary screen, biochemical, fluorescence, HTS; cell-free RecA intein splicing; inhibition, %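 (about 9 µM by stock and volumes)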; actives 0.75% (n = 290,000); AID 2221, 2009; in the data active means inhibition above about 30%; inconclusive means no clear call, values can overlap the other calls;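 further: 0% = vehicle wells and 100% = reference inhibitor control wells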
# Target sequence (P9WHJ3 whole entry, looked up, canonical isoform): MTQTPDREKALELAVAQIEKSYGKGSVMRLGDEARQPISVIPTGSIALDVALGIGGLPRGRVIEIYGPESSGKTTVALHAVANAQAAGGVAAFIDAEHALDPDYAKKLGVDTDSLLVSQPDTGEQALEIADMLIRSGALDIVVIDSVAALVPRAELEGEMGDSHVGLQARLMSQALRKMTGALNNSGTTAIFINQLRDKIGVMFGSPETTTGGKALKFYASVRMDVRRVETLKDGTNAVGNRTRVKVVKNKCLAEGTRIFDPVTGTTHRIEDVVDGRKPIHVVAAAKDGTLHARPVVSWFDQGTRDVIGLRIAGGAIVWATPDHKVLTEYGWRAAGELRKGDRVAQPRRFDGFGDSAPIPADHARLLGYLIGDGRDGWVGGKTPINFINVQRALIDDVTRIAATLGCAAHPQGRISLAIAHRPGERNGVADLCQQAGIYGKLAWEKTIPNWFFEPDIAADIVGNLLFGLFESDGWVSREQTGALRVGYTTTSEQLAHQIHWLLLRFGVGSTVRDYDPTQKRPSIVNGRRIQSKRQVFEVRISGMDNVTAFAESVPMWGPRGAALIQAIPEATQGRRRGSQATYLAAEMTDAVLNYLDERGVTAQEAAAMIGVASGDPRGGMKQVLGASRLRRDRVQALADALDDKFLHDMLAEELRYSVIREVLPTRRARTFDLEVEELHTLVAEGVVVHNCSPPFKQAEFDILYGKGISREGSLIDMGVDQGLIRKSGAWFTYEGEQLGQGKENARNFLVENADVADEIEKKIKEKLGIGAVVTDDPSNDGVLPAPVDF
# Arbovirus inh: antivirals against arbovirus infection, primary screen, cell-based, full library, 10K replicate subset. inhibition, % at 10 µM. actives 0.37% (n = 200,000). arbovirus infection cell-based antiviral screen;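 active means inhibition from about 30%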;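 further: bluetongue infection of BSR cells; cell survival read as ATP light after 72 h; 0% = infected wells without compound and 100% = uninfected wells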
# YopH inh: YopH tyrosine phosphatase inhibitors, primary screen, biochemical, fluorescence Ex485/Em525. YopH tyrosine phosphatase [Yersinia enterocolitica]. inhibition, %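 (about 10 µM by stock and volumes)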. actives 0.16% (n = 140,000). AID 898, 2007;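 active means inhibition of 50% or more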;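 further: controls were vehicle for no effect and minimum signal wells for full effect; inactives centre near -20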
# Mtb growth: M. tuberculosis H37Rv growth inhibitors, H37Rv strain (AID 1626). inhibition, % at 10 µM; hits with a dose series show IC50 in µM. actives 0.95% (n = 220,000). M. tuberculosis H37Rv growth inhibition; higher % means a stronger effect;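 active means confirmed in a dose series; inconclusive means inhibition above 80% but not taken into the dose series; inactive means below 80% or under 30% at every dose of the series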;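 further: bacteria incubated seven days before Alamar blue readout; 0% = bacteria only wells and 100% = bacteria with antibiotic wells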
# Arbovirus inh repeat: recorded beside Arbovirus inh, whose call it bears; inhibition, %; measured here: 10K subset replicate screen; many hits read low in the repeat;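 first of two repeat runs on a subset; 0% = infected and 100% = uninfected wells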
# Starred values were filed as active, the others as inactive; ? = inconclusive; . = no result given. Not all compounds are listed; rates above refer to the full screens.
SMILES,Mtb bLac sens,RecA splice inh,Arbovirus inh,YopH inh,Mtb growth,others
COc1ccc2c(c1)Cc1sc(NC(C)=O)nc1-2,6.9,5.3,-8.2,-2.0,-4.5%,
CCCNC(=O)Cn1cnc2sc(C(=O)NCCCN3CCOCC3)c(C)c2c1=O,0.4,1.1,.,.,.,
COc1ccc(C(=O)NCC(=O)OCc2ccc(F)cc2Cl)cc1OC,-0.8,0.7,1.2,-32.9,-1.9%,
Cc1ccc(N(CCC#N)C(=O)COC(=O)c2ccccn2)cc1,?,1.6,.,.,.,
O=C(N1CCCCC1)N1CCN(c2ccc(Cl)cc2)CC1,-4.9,1.4,-11.0,-48.0,-5.4%,
Cc1cc(C)c(NC(=O)COC(=O)CCn2c(C)csc2=O)c(C)c1,3.8,1.8,.,.,.,
O=C(Nc1ccc(S(=O)(=O)Nc2cnc3ccccc3n2)cc1)c1ccccc1Br,-1.4,-0.7,.,.,.,
CCC(C)(C)C(=O)Nc1nnc(CCc2ccccc2)s1,-3.7,-2.6,.,.,.,
Cc1cc(NC(=O)CCC(=O)N(Cc2ccco2)C2(C(=O)NC3CCCC3)CCCCC2C)no1 (stereo not given),0.0,4.8,.,.,.,
COc1ccc(C2C(C#N)=C(N)Oc3cc(N)ccc32)cc1 (stereo not given),2.8,-2.0,.,.,.,
CCCOc1ccc(C(=O)CCC(=O)OCC(=O)Nc2cc(C)on2)cc1,.,.,1.3,-15.5,-3.9%,
Cc1ccc(C)c(N2CCN(C(=O)c3cc(S(=O)(=O)N4CCCC4)cn3C)CC2)c1,-5.0,4.4,.,.,.,
COc1cc2c(cc1NC(=O)CSc1ccccn1)oc1ccccc12,3.3,-0.7,-9.8,-27.9,.,
CCN1CCN(S(=O)(=O)c2ccc(Cl)c(C(=O)N(C)Cc3ccc(Cl)cc3Cl)c2)CC1,-4.0,-0.4,.,.,.,
COc1ccc(-n2nnnc2-c2ccc(S(C)(=O)=O)cc2Cl)cc1,1.1,0.0,.,.,.,
CN(C)S(=O)(=O)c1ccc(N2CCCC2)c(C(=O)Nc2nc3c(ccc4ccccc43)s2)c1,-1.8,0.0,-11.2,-18.3,6.8%,
O=C(NCCN1CCCCC1)c1cc(COc2c(F)cccc2F)on1,1.9,1.0,.,.,.,
COC(=O)c1cc(=O)n(-c2c(Cl)cc(C(F)(F)F)cc2Cl)[nH]1,4.2,-1.6,.,.,-0.5%,
Cc1ccc(S(=O)(=O)/N=C2/NC(=O)/C(=C/c3ccccn3)S2)cc1,-8.8,-2.4,-8.0,.,-5.9%,
COCc1cc(=O)[nH]c(Nc2nc(C)c3cc(OC)ccc3n2)n1,-3.9,-1.3,-3.1,-14.0,.,
COC(=O)C1=C(C)N(C)C(=S)N(C)C1c1cccc(Br)c1 (stereo not given),-3.3,7.8,1.0,.,3.4%,
COc1ccc(CCNC(=O)CN2CCN(S(=O)(=O)c3ccc(Cl)cc3)CC2)cc1OC,-9.5,0.3,6.3,-18.4,5.0%,
COc1ccc(NC(=O)c2csc3c2CCCCC3)c(OC)c1,80.0,8.9,-12.1,.,0.1%,
CCOc1cc(N2CCOCC2)c(OCC)cc1NC(=O)CN1CCCC(C)C1 (stereo not given),51.5,-1.6,-1.1,-18.7,2.4%,
N#Cc1cc2ccccc2n2nnnc12,7.2,-0.9,.,.,.,
CCOc1cccc(CN2CCN(c3cccc(C(F)(F)F)c3)CC2)c1O,0.8,9.6,24.6,-10.5,3.9%,
COc1ccc(CNc2oc(Cc3cccc4ccccc34)nc2C#N)cc1,-0.4,20.6,-12.0,6.5,11.8%,
O=C(NCC1CCCCC1)c1ccc([N+](=O)[O-])cc1,1.0,1.0,.,.,.,
Cc1csc2c(N3CCC(C(=O)O)CC3)ncnc12,-4.9,.,.,.,-4.3%,
Cc1ccc(S(=O)(=O)c2nc(-c3ccccc3)oc2NCc2cccnc2)cc1,-10.9,3.1,-7.9,-46.2,-6.9%,
CCOC(=O)C1=C(C)NC(=O)NC1c1cc(Br)c(O)c(OC)c1 (stereo not given),-13.0,0.0,13.7,4.9,-9.4%,
O=C(c1ccco1)N1CCN(C(c2cccs2)c2nnnn2C2CCCC2)CC1 (stereo not given),-1.6,0.5,-0.9,-3.2,-10.3%,
Brc1cc(Br)cc(CN2CCSCC2)c1,1.4,2.0,.,.,-9.2%,
O=NNc1nc2ccccc2n1Cc1ccccc1,-3.4,-1.1,.,.,.,
CC(C)(C)c1ccc(C(=O)Nc2ccc(O)c3c(=O)cc(-c4cccc(Cl)c4)oc23)cc1,-9.5,1.3,.,.,-7.0%,
O=C(c1nn2c(C(F)(F)F)cc(-c3ccc(F)cc3)nc2c1Cl)N1CCOCC1,-0.4,-3.3,-0.7,-38.8,1.0%,
CCOC(=O)c1csc(NC(=O)C2CCCCC2)n1,-1.3,2.5,1.8,-20.8,6.0%,Arbovirus inh repeat=8.3
O=C(c1ccc(O)cc1)c1ccc(Cl)cc1,72.2,4.5,4.1,-31.2,52.7%,
O=C(Nc1cccc(-c2nc3ccccc3s2)c1)c1cccs1,-7.2,.,4.9,-31.9,-2.5%,
COc1ccc(N2C(=O)CC(c3ccccc3)C2=O)cc1 (stereo not given),-10.9,-4.9,.,.,-7.0%,

# 2 entries picked at random from those above, as already listed:
SMILES,Mtb bLac sens,RecA splice inh,Arbovirus inh,YopH inh,Mtb growth,others
N#Cc1cc2ccccc2n2nnnc12,7.2,-0.9,.,.,.,
COc1ccc(N2C(=O)CC(c3ccccc3)C2=O)cc1 (stereo not given),-10.9,-4.9,.,.,-7.0%,

# Back to the main list with the 3 entries that preceded the break.
SMILES,Mtb bLac sens,RecA splice inh,Arbovirus inh,YopH inh,Mtb growth,others
O=C(c1ccc(O)cc1)c1ccc(Cl)cc1,72.2,4.5,4.1,-31.2,52.7%,
O=C(Nc1cccc(-c2nc3ccccc3s2)c1)c1cccs1,-7.2,.,4.9,-31.9,-2.5%,
COc1ccc(N2C(=O)CC(c3ccccc3)C2=O)cc1 (stereo not given),-10.9,-4.9,.,.,-7.0%,
O=C(NC(=O)c1ccc(F)cc1F)Nc1ccc(Cl)cc1,-0.1,-0.8,.,.,-3.8%,
CCc1ccc(N2CN(Cc3ccco3)CNC2=S)cc1,62.8,0.3,.,.,-15.6%,
Cc1nc2c(-c3ccccc3)c(C)[nH]n2c(=O)c1Cl,80.0,-0.6,-5.2,-26.1,.,
CC(C)(C)NC(=O)C(OC(=O)c1cccs1)c1ccc(F)cc1 (stereo not given),1.3,0.4,-4.3,.,5.7%,
CC(C)Cc1nnc(NC(=O)CS(=O)(=O)Cc2ccccc2)s1,3.7,1.8,9.3,-6.3,3.8%,
COc1cccc2cc(C(C)N(CCCN3CCOCC3)C(=S)Nc3ccccc3C)oc12 (stereo not given),2.3,0.3,15.0,.,2.9%,
Cc1cc(C)cc(Oc2coc3c(CN(C)C)c(O)ccc3c2=O)c1,-7.1,-3.8,.,.,.,
Cc1oc(C(=O)O)cc1COc1ccc2c(C)cc(=O)oc2c1,-1.9,-1.5,8.3,-20.0,-13.7%,
O=[N+]([O-])c1ccc(CSc2nnc3ccccn23)cc1,2.0,1.3,7.8,.,-9.7%,
CCOC(=O)c1nnn(CC(=O)N2N=C(c3cc(C)ccc3C)CC2c2ccc(OC)cc2)c1C(=O)OCC (stereo not given),2.1,2.7,13.1,-15.6,9.3%,
O=C(O)CSCC(=O)Nc1cccc2ccccc12,17.8,0.6,4.2,-56.6,0.7%,
O=S(=O)(c1ccccc1)N(C1=NCCS1)S(=O)(=O)c1ccccc1,8.4,-0.4,10.3,-50.5,-12.9%,
COc1ccccc1CNc1nc(SC)ncc1CO,-3.9,-1.6,3.1,-38.1,-0.7%,
O=C(CCCn1c(=O)[nH]c2cc(Cl)ccc2c1=O)NCCCN1CCCC1=O,-2.2,0.5,8.6,-6.4,2.1%,
CC1CCCC(NC(=O)CCS(=O)(=O)c2cc3c(cc2Cl)NC(=O)CO3)C1C (stereo not given),-5.3,0.2,.,.,.,
Cc1cc(S(=O)(=O)N(Cc2ccccc2Cl)c2ccc3c(c2)CCC3)ccc1-n1cnnn1,-1.2,3.8,-6.4,-25.6,0.1%,
Cn1c(SCC(=O)NCc2ccccc2)nnc1-c1ccc(NC(=O)CCc2ccccc2)cc1,-0.9,-1.5,-0.8,4.3,-3.7%,
C=CCn1c(O)c(N=NC(=O)OC(C)(C)C)c2ccccc21,-1.3,-3.1,-4.8,-21.8,-2.9%,
Cn1c(=S)[nH]c2ccccc21,-11.9,2.0,-2.7,-2.5,-10.8%,
CCc1ccc(/C=C(/C#N)C(N)=S)cc1,6.9,1.0,2.8,-25.7,-3.0%,

# An excerpt from above in order of count of non-hydrogen atoms, smallest number first.
SMILES,Mtb bLac sens,RecA splice inh,Arbovirus inh,YopH inh,Mtb growth,others
Cc1nc2c(-c3ccccc3)c(C)[nH]n2c(=O)c1Cl,80.0,-0.6,-5.2,-26.1,.,
O=[N+]([O-])c1ccc(CSc2nnc3ccccn23)cc1,2.0,1.3,7.8,.,-9.7%,
CCOC(=O)c1nnn(CC(=O)N2N=C(c3cc(C)ccc3C)CC2c2ccc(OC)cc2)c1C(=O)OCC (stereo not given),2.1,2.7,13.1,-15.6,9.3%,

# Continuation:
SMILES,Mtb bLac sens,RecA splice inh,Arbovirus inh,YopH inh,Mtb growth,others
Fc1ccc(NC(=S)N/N=C/c2ccc(F)c(F)c2)c(F)c1,-27.1,-1.1,1.7,-2.8,-0.8%,
Cc1ccc(OCCC(=O)NCCc2ccc(S(N)(=O)=O)cc2)cc1,1.7,-3.8,1.0,-31.7,3.2%,
COc1ccc(S(=O)(=O)N2CCN(CC3CC=CCC3)CC2)cc1 (stereo not given),3.6,4.7,.,.,.,
CCN(CC)S(=O)(=O)c1cccc(-c2nnc(SCc3nnc(-c4cccs4)o3)n2N)c1,-2.2,1.2,9.8,-17.4,-4.1%,Arbovirus inh repeat=-4.3
CC1(c2ccc3ccccc3c2)NC(=O)N(CC(=O)Nc2cccc(S(=O)(=O)N3CCOCC3)c2)C1=O (stereo not given),-9.0,3.7,-5.2,-8.2,6.0%,
O=C(NCCOc1ccccc1)c1ccccc1[N+](=O)[O-],-2.9,.,0.1,.,12.6%,
COCCN(CCOC)C(=O)Nc1ccc(Cl)cc1,21.3,2.0,4.5,.,-3.1%,
COc1ccc(C(=O)NCC(=O)N/N=C/c2cccnc2)cc1,-10.8,-3.9,.,.,.,
Cc1ccc(S(=O)(=O)NCCC(=O)Nc2ccc(C)cc2C(=O)c2ccccc2)cc1,0.3,3.0,-3.1,-36.3,5.5%,
Cc1ccc(-c2csc3ncnc(NS(=O)(=O)c4ccc(Cl)cc4)c23)cc1,-1.5,-0.4,45.9*,-7.9,5.5%,
O=C(NCc1ccco1)c1ccc(-c2ccccc2Cl)o1,-8.6,8.0,15.2,.,6.5%,
Cc1ccc(C(C)(C)C)c(OCCOCCN2CCCC2)c1,0.3,-3.2,-20.3,-18.4,1.3%,
Cc1ccc(OCC(=O)Nc2ccc(CN3CCOCC3)cc2)cc1C,4.6,-0.6,.,.,.,
CCN(CC)S(=O)(=O)c1ccc(Cl)c(NC2=NCCCCC2)c1,1.9,-2.7,0.6,.,4.9%,
COc1cccc2cc(C(=O)C3=C(O)C(=O)N(CCN4CCOCC4)C3c3cccs3)oc12 (stereo not given),-3.7,6.8,6.7,-21.4,-7.2%,
COc1cccc(OC)c1C(=O)OCC(=O)NCCCc1ccccc1,-2.8,3.1,.,.,.,
C=CCn1c(-c2cc(-c3ccccc3)sc2N)n[nH]c1=S,-3.0,1.3,.,.,-4.3%,
O=C(N/N=C/c1ccc(O)c(O)c1)N/N=C/c1ccc(O)c(O)c1,4.1,-4.3,.,.,.,
CCOC(=O)N1CCN(C(=O)c2cn(CC(C)C)c(=O)c3c2c2ccccc2n3C)CC1,.,-3.3,5.4,-25.6,-6.3%,
O=C(NCc1ccc(F)cc1)N[C@@H](Cc1ccccc1)C(=O)O,-6.6,1.3,5.3,-41.6,-11.6%,
O=C(NCCc1ccc(Cl)cc1)c1ccc2nc(N3CCOCC3)sc2c1,-6.1,-1.9,.,.,.,
Cc1ccc(N(CCCCN2C(=O)c3ccccc3C2=O)C(=O)c2cccs2)cc1,-8.6,-1.3,7.7,-36.1,-1.7%,
COc1ccc(C)cc1N(CC(=O)NC(C)c1ccccc1)S(C)(=O)=O (stereo not given),-2.6,-5.4,.,.,.,
CCN(CC)C(=O)Oc1ccc(Br)cc1C(=O)Nc1ccc(F)c(Cl)c1,-1.6,-0.2,.,.,1.0%,
O=c1c2ccccc2n2nnnc2n1-c1ccccc1,-6.0,0.4,2.7,1.1,-6.3%,
CC(C)c1ccc(C(=O)N2CCN(CCO)CC2)cc1,-15.6,-4.0,6.8,-10.9,-3.0%,
CC(C)(C)NC(=O)N1CCN(c2nc3ccc(Cl)cc3s2)CC1,2.1,1.2,.,.,.,
